Compound activity as filed in PubChem.
LASV entry inh = inhibitors of Lassa virus binding or cell entry; Lassa virus pseudotype entry inhibition, cell reporter; control for the full effect not named in the record; actives 1.2% (n = 300,000); Potency, µM (doses to about 37.9 µM), for the others: top-dose activity change, negative = inhibition, usual class: inhibitors; active means well fitted inhibition curve with a large enough effect; inconclusive means small, poorly fitted or top-dose-only effect, or effect the other way; inactive means flat fitted curve, though single readings scatter; tested in HEK293 cells; further: on the % scale 0 is the no-effect control and ±100 the full control effect; nearly all actives have a fitted effect of over 50% in size; luciferase read-out
NS1 inh = blocks influenza NS1 protein function; actives 0.4% (n = 270,000); Potency, µM (series often up to 46.1 µM), for inactives: at the top dose activity, positive = more growth; S. cerevisiae slowed by influenza A NS1, growth recovery by OD600; active means well fitted rising curve with a large enough effect; inconclusive means small, poorly fitted or top-dose-only effect; inactive means no such curve, though single readings can be large or run the other way; further: nearly all actives have a fitted effect of over 50% in size
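OD600 was taken as the measure of yeast growth restored by compound in an NS1-expressing S. cerevisiae strain. Cells had been washed out of glucose medium and diluted 1:100 into galactose -URA medium, pH 6.0.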
Cruzain noTriton = blocks cruzain activity in detergent-free assay; P25779; purified cruzain, Z-FR-AMC fluorescence, no detergent; Potency, µM, for the others: max response, negative = inhibition, hits mostly inhibitors; actives 2.3% (n = 200,000);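 further: plate controls were enzyme without inhibitor for no effect and buffer without enzyme for full effect; nearly all actives have a fitted effect of over 40% in size; top concentration of the series not given in the record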
Target sequence (P25779 123-467 limits assumed): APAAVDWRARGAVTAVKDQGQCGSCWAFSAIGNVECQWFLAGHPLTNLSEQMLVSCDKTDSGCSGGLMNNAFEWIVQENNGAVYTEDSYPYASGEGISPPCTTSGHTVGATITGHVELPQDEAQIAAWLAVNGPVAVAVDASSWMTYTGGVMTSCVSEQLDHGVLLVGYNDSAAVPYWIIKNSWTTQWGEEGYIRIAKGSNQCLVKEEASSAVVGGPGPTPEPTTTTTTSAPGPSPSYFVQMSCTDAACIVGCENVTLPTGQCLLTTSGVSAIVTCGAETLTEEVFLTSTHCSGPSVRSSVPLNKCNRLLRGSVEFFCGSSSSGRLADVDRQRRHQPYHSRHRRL
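Purified cruzain at 1.5 nM, pre-incubated 15 min with compound at room temperature in 100 mM sodium acetate pH 5.5, 5 mM DTT, 0.00005% Triton X-100. Reaction started with 2 uM Z-FR-AMC; AMC fluorescence increase over 60 s gives rate.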
RE007 growth inh = less growth of the S. pombe RE007 Vpr strain; Potency, µM (titrated, usually from 92.2 µM), for inactives: at the highest dose activity change, negative = less growth; S. pombe RE007 Vpr strain, BacTiter-Glo ATP luminescence, 24 h; control for the full effect not named in the record; actives 0.21% (n = 360,000); AID 651644; active = well fitted falling curve with a large enough effect; inconclusive = small, poorly fitted or top-dose-only effect; inactive = no such curve, though single readings can be large or run the other way;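 further: on the % scale 0 is the no-effect control and ±100 the full control effect; nearly all actives have a fitted effect of over 50% in size; the assay follows cell death caused by Vpr and the record does not say whether a fall means rescue or toxicity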
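Fission yeast strain RE007, carrying one chromosomally integrated HIV-1 vpr copy, was seeded at OD 0.01 in PMG+AL medium with 23 nL pinned compound. After 24 h at 30 °C and 99% humidity, viability was read by BacTiter-Glo luminescence.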
Cruzain inh Det = inhibitors of Trypanosoma cruzi cruzain with detergent | purified cruzain, Z-FR-AMC fluorescence, 0.01% Triton | Potency, µM, inactives show max response, negative = inhibition, most hits filed as inhibitors | actives 0.43% (n = 200,000) | AID 1478;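 further: plate controls were neutral wells for no effect and buffer without enzyme for full effect; nearly all actives have a fitted effect of over 40% in size; top concentration of the series not given in the record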
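Read-out: AMC fluorescence (360 nm excitation, 450 nm emission), four reads over 2 min, first-to-third difference used. Conditions: cruzain 1.5 nM, Z-FR-AMC 2 uM, pH 5.5 acetate, 5 mM DTT, 0.01% Triton X-100.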
StopGo reporter = lowers the luciferase signal of an FMDV 2A StopGo reporter. human cells with a luciferase reporter of 2A StopGo recoding; control for the full effect not named in the record. Potency, µM (doses to about 57.9 µM), without a hit: top-dose signal change, negative = less light. actives 1.2% (n = 410,000); active = well fitted falling curve with a large enough effect; inconclusive = small, poorly fitted or top-dose-only effect; inactive = no such curve, though single readings can be large or run the other way; tested in HEK293T cells; further: on the % scale 0 is the no-effect control and ±100 the full control effect; nearly all actives have a fitted effect of over 45% in size; luciferase light after 4 h
Marburg entry inh = inhibitors of Marburg virus binding or cell entry; Marburg virus pseudotyped entry inhibition, cell reporter; control for the full effect not named in the record; about a third of the inactives were read at about 46 µM; Potency, µM (doses to about 37.8 µM), for inactives: at the highest dose activity change, negative = inhibition, hits mostly inhibitors; actives 1.8% (n = 300,000); active = well fitted inhibition curve with a large enough effect; inconclusive = small, poorly fitted or top-dose-only effect, or effect the other way; inactive = flat fitted curve, though single readings scatter; tested in HEK293 cells; about a fifth of its hits are not listed in these tables; further: on the % scale 0 is the no-effect control and ±100 the full control effect; luciferase read-out
SARS PLP yeast = inhibitors of SARS-CoV papain-like protease in yeast; actives 0.19% (n = 330,000); Potency, µM (top dose mostly 32.9 µM), for inactives: at the top dose activity, positive = growth rescue; S. cerevisiae expressing SARS-CoV PLpro, growth rescue; control for the full effect not named in the record; active means well fitted rising curve with a large enough effect; inconclusive means small, poorly fitted or top-dose-only effect; inactive means no such curve, though single readings can be large or run the other way; further: 0% is about no effect; nearly all actives have a fitted effect of over 55% in size; growth read by luminescence after 48 h
Numbers without * were called inactive; ? = inconclusive; / = no result given; & = joins results of further samples; [ ] = another dose, or the depositor's remark. Unless noted, the call rests on the fitted dose curve; in most records, active means well fitted curve in the direction sought with a large enough effect; inconclusive means small, poorly fitted or top-dose-only effect, or another doubt; inactive means no such curve, though single readings can be large; an effect the other way counts as inactive or inconclusive. Potency means the concentration at half of the fitted maximal effect.

SMILES	LASV entry inh	NS1 inh	Cruzain noTriton	RE007 growth inh	Cruzain inh Det	StopGo reporter	Marburg entry inh	SARS PLP yeast
NS(=O)(=O)c1cccn1-c1ncc(C(F)(F)F)cc1Cl	5%	-3%	2%	3%	0.7%	-19%	-5%[46.1 µM]	0%
CC(C)Oc1ccc(CNC(=O)c2ccc(NC(=O)c3nsc4ccccc34)cc2)cc1	?	/	-18%	/	-1.8%	-11%	/	/
COc1ccc(NC(=O)NN2CCOCC2)cc1OC	9%	0%	/	-6%	/	-5%	-12%[14.2 µM]	1%
CCCCCCCCCCCCCCCC[n+]1ccc(C(N)=O)cc1	?	-6%	3%	?	-6.7%	?	-16%	-20%
Cc1ccc(SCC(=O)NNC(=O)CCS(=O)(=O)c2ccccc2)cc1	4%	/	/	17%	/	0%	-4%	18%
CSc1ccccc1NC(=O)CN(C)CC(=O)Nc1c(F)cccc1F	13%	10%	-1%	/	-1.0%	-16%	-25%	-2%
O=S(=O)(O)C1CCNCC1	-2%	3%&-1%	13%&2%	/	3.2%&5.1%	/	?	1%
COc1cc(COc2ccc3c(C)c(Cc4ccccc4)c(=O)oc3c2)cc(OC)c1OC	?	6%	-1%	10%	-6.6%	?	?	1%
COc1cc(C(=O)Nc2ccc(Cl)c([N+](=O)[O-])c2)cc(OC)c1OC	?	/	/	-19%	/	-11%	-12%[46.1 µM]	0%
COc1ccc(OC)c(NC(=O)CCN2CC(C)OC(C)C2)c1 (stereo unspecified)	3%	0%	9%	-1%	7.7%	4%	16%	-2%
CC(C)C[C@H](NC(=O)c1[nH]cnc1C(=O)Nc1ccc(Cl)cc1)C(=O)OC(C)(C)C	/	16%	/	14%	/	-21%	/	0%
CC(=O)Nc1ccc(C(=O)CS(=O)(=O)c2ccc(C)cc2)cc1	-2%	2%[9.22 µM]	-3%	9%	-8.4%	16%	?	11%
Cc1nc(-c2ccc(S(=O)(=O)NCc3ccccc3Cl)cc2)co1	2%[46.1 µM]	/	-12%	/	-0.7%	19%	/	/
COc1ccccc1CNC(=O)C1COc2ccccc2O1 (stereo unspecified)	11%	-9%	-5%	5%	5.3%	46%[activator]	1%	-5%
CCN1CCN(CC(=O)N2N=C(c3cccs3)CC2c2ccc(OC)c(OC)c2)C(=O)C1=O (stereo unspecified)	3%	/	/	-4%	/	-2%	7%[46.1 µM]	4%
O=C(Cc1ccccc1)NC1CCN(C(=O)c2ccc([N+](=O)[O-])cc2)CC1	-18%[46.1 µM]	-3%	/	1%	/	-20%	-2%[46.1 µM]	0%
CC(C)N(C(=O)COC(=O)c1cccnc1Cl)c1ccccc1	?	/	/	-8%	/	3%	?	17%
Cc1ccnc(NC(=O)CCC(=O)N(CC(=O)NC(C)(C)C)c2ccc3c(c2)OCO3)c1	?	-5%	/	-16%	/	2%	8%[46.1 µM]	-1%
CC1(C)CN=C(Nc2ccccc2C(F)(F)F)S1	1%	0%	1%	-4%	0.1%	12%	-19%	2%
CC(C)C(NC(=O)c1ccccc1)C(=O)NCc1ccccn1 (stereo unspecified)	9%	0%	-7%	-5%	-1.6%	0%	12%	-5%
CN1CCCN(Cc2ccccc2Br)CC1	-11%	3%	/	-17%	/	-15%	?	-3%
CCC(=O)N1C(=O)CCN(C(C)=O)c2ccccc21	-20%	-49%	8%	-14%	0.9%	-16%	?	-47%
COc1ccccc1N1CCN(c2ccc(S(=O)(=O)N3CCN(C)CC3)cn2)CC1	-1%[46.1 µM]	/	/	-15%	/	-15%	?	11%
Cc1ccc(-c2nnc(NC(=O)C3=COCCO3)o2)c(C)c1	8%	/	/	-23%	/	8%	?	6%
Cc1cc(=O)c2ccc3ccccc3c2[nH]1	13%	8%	-4%	-4%	4.0%	-1%	5%	0%

(cont.)
SMILES	LASV entry inh	NS1 inh	Cruzain noTriton	RE007 growth inh	Cruzain inh Det	StopGo reporter	Marburg entry inh	SARS PLP yeast
CCC(CC)C(=O)NCCc1cc2c(C)ccc(C)c2[nH]c1=O	/	-6%	/	0%	/	-11%	/	19%
Cc1cc(-c2ccccc2)[nH]c(=O)c1S(=O)(=O)c1ccccc1	15%	1%	-3%	15%	-2.3%	3%	14%	7%
O=C(CNC(=S)N(Cc1ccccc1F)C1CCCCC1)NCCN1CCOCC1	14%	/	/	-1%	/	-8%	-21%[46.1 µM]	-3%
CCc1nc2oc3ccccc3c(=O)c2c(=O)n1Cc1ccc(OC)cc1	-28%	-18%	-8%	4%	3.5%	12%	11%	0%
Cc1cc([N+](=O)[O-])ccc1NCc1ccco1	/	2%	/	-9%	/	-8%	/	0%
Cc1ccc(Cl)cc1Nc1sc(C(=O)c2ccc(F)cc2)c(N)c1S(C)(=O)=O	?	/	-27%	/	-12%	?	-33%[46.1 µM]	/
CCC(Oc1ccccc1)C(=O)Nc1ccccc1C(=O)N1CCCCC1 (stereo unspecified)	?	6%	/	2%	/	?	11µM*	1%
O=C(NC1(C(F)(F)F)C(=O)Nc2c1c(=O)[nH]c(=O)n2Cc1ccco1)C1CCCCC1 (stereo unspecified)	1%	0%	-4%	-6%	2.9%	-4%	-4%	15%
COc1ccc(C(=O)NNC(=S)Nc2ccccc2)cc1	-1%	/	/	-4%	/	90%[activator]	-8%	2%
CCn1c(COc2ccccc2C)nnc1SCC(=O)N1CCC(C)CC1	5%	-9%	?	9%	5.7%	-20%	?	14%
CCOC(=O)C1CCCN(C(=O)c2ccc3c(c2)N(C)C(=O)/C(=C/c2ccccc2Cl)S3)C1 (stereo unspecified)	?	-4%	/	6%	/	?	-25%[46.1 µM]	-6%
Cc1cc(C)cc(NC(=O)CCc2nc3sc4c(c3c(=O)[nH]2)CCCC4)c1	-6%	/	/	-3%	/	5%	14%	/
CCOC(=O)c1cc(NC(=O)CNCC(c2ccccc2)N(C)C)cc(C(=O)OCC)c1 (stereo unspecified)	-27%	-3%	/	-15%	/	-11%	?	2%
O=C(CSc1nc2ccccc2c(=O)[nH]1)Nc1ccc([N+](=O)[O-])cc1	?	/	/	13%	/	?	?	-11%
Cc1nn(-c2ccc(N3CCCC3)nn2)c(C)c1CCC(=O)Nc1ccccc1	10%[46.1 µM]	/	-1%	/	-1.3%	5%	/	/
Cc1cc(N(C)Cc2ccccc2)nc(-c2ccccc2)n1	2%	-31%	-6%	-24%	-3.4%	-14%	?	6%
CC(=O)Nc1cc(Cl)ccc1OS(=O)(=O)c1ccc(C)cc1	?	-4%	8%	-2%	-1.4%	-17%	?	14%
CC12CCC(C(=O)N(c3ccccn3)c3ccccn3)(OC1=O)C2(C)C (stereo unspecified)	6%	1%	-3%	-4%	3.9%	-13%	0%	2%
O=C(Nc1ccccc1)N(c1ccccc1)C1C=CS(=O)(=O)C1 (stereo unspecified)	0%	4%	/	3%	/	-4%	2%	0%
COc1ccc(/C=C(\NC(=O)c2ccccc2)C(=O)NNC(=O)CCN2CCOCC2)cc1	/	-1%	/	2%	/	-9%	/	1%
COC(=O)C1C(=O)C2=C(CC1C)NC(=O)CC2c1cccc(C)c1 (stereo unspecified)	1%	1%	-5%	-4%	8.0%	-6%	6%	0%
COc1cccc(-c2nc(CS(=O)CC(=O)NC3CCCC3)c(C)o2)c1 (stereo unspecified)	/	7%	-6%	-3%	1.2%	-10%	/	14%
CCc1ccc(-c2nnn(Cc3nc4ccccc4s3)n2)cc1	-8%	-4%	-11%	-5%	-0.6%	14%	?	-2%
Cc1ccccc1Oc1ncnc2sccc12	-8%	-8%	-5%	-8%	2.6%	0%	-2%	2%
Oc1ccc(N=Nc2n[nH]c(-c3ccccc3)n2)cc1	?	-15%	-3%	-25%	-7.2%	-18%	?	-11%

Part of the list above in order of SMILES length, largest number first.
SMILES	LASV entry inh	NS1 inh	Cruzain noTriton	RE007 growth inh	Cruzain inh Det	StopGo reporter	Marburg entry inh	SARS PLP yeast
COc1cccc(-c2nc(CS(=O)CC(=O)NC3CCCC3)c(C)o2)c1 (stereo unspecified)	/	7%	-6%	-3%	1.2%	-10%	/	14%
O=C(CNC(=S)N(Cc1ccccc1F)C1CCCCC1)NCCN1CCOCC1	14%	/	/	-1%	/	-8%	-21%[46.1 µM]	-3%
CCC(CC)C(=O)NCCc1cc2c(C)ccc(C)c2[nH]c1=O	/	-6%	/	0%	/	-11%	/	19%
CCc1ccc(-c2nnn(Cc3nc4ccccc4s3)n2)cc1	-8%	-4%	-11%	-5%	-0.6%	14%	?	-2%
Cc1cc(N(C)Cc2ccccc2)nc(-c2ccccc2)n1	2%	-31%	-6%	-24%	-3.4%	-14%	?	6%
Cc1cc([N+](=O)[O-])ccc1NCc1ccco1	/	2%	/	-9%	/	-8%	/	0%

(list continues)
SMILES	LASV entry inh	NS1 inh	Cruzain noTriton	RE007 growth inh	Cruzain inh Det	StopGo reporter	Marburg entry inh	SARS PLP yeast
Cc1cccc(C)c1NC(=O)N1CCN(C2CCCCC2)CC1	11%	3%	-12%	-5%	-2.0%	-8%	-3%	7%
O=C(O)COc1ccc(/C=C/c2nc(-c3ccccc3O)n[nH]2)cc1	/	15%	/	3%	/	9%	/	0%
Cc1oc(-c2ccccc2)cc1C(=O)Nc1cccc(/C=C/C(=O)O)c1	-12%	-2%	/	-13%	/	6%	?	0%
Cc1c(-c2nc(N)nc(Nc3ccccc3F)n2)oc2ccccc12	?	-32%	8%	-4%	-1.5%	51%[activator]	-17%	-23%
CCN(CC)S(=O)(=O)c1cccc(-c2nnc(SCC(N)=O)n2C)c1	-7%	/	/	18%	/	-8%	2%[46.1 µM]	-1%
CCCCN(C(=O)c1[nH]c(C)c(C(C)=O)c1C)c1c(N)n(CCCC)c(=O)[nH]c1=O	17%[46.1 µM]	/	/	?	/	-12%	21%	0%
O=C(c1cc(S(=O)(=O)N2CCN(c3ccccc3)CC2)ccc1Cl)N1CCCC(C(F)(F)F)C1 (stereo unspecified)	?	/	/	6%	/	?	?	6%

This is a random part of the collection; any-hit rate near 4.7%.
